# High-throughput results as filed in PubChem BioAssay.
# Rango dissoc inh = qHTS Assay for Inhibitors of RanGTP induced Rango (Ran-regulated importin-beta cargo) - Importin beta complex dissociation; Snurportin-1 (Homo sapiens) + GTP-binding nuclear protein Ran (Homo sapiens) + Importin …; Biochemical FRET Rango-importin beta, RanGTP-induced dissociation; Potency, µM (doses to about 46.1 µM), inactives show at the highest dose activity change, negative = inhibition; 340,000 compounds, 0.071% hits; AID 540253, 2011; active means falling FRET ratio curve, often poorly fitted, with flat reads before Ran was added; inconclusive means other falling curves, or compound fluorescence or quenching; inactive means flat or rising ratio curve;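 also: potency is read from the fitted curve at half-maximal effect; % of control where 0% means no effect; nearly all actives have a fitted effect of over 45% in size; -100% = wells without RanGTP and RCC1; the record marks most hits as doubtful in a second field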
#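 Rango/importin beta premix (0.1/0.25 uM final), PBS + 1 mM DTT + 0.02% Tween-20 + 0.1% BSA; cpd 5 min RT; FRET pre-read; + RanGTP-RCC1 (0.6 uM Ran, 2 mM GTP, 0.2 uM RCC1); 45 min RT; FRET post-read, ex 430, em 486/530 nm.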
# miR-21 FLuc = qHTS Assay for Modulators of miRNAs and/orActivators of miR-21; HeLa miR-21 FLuc reporter, luciferase, 48 h; Potency, µM (doses to about 38.3 µM), inactives show top-dose reporter change, positive = more light; 340,000 tested, under 10 active; AID 2288, 2010; active = well fitted rising curve with a large enough effect; inconclusive = small, poorly fitted or top-dose-only effect; inactive = no such curve, though single readings can be large or run the other way;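 also: % of control where 0% means no effect; miR-21 action dims this reporter so a rising signal means less miR-21 action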
#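 HeLa cells endogenously expressing miR-21, stably carrying CMV-driven firefly luciferase with a downstream miR-21 binding site, 2000 cells/well. Titrations up to approximately 40 uM, 48 hours; luciferase luminescence read.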
# Rango complex inh = qHTS Assay for Inhibitors of Rango (Ran-regulated importin-beta cargo) - Importin beta complex formation; Rango CFP/YFP FRET sensor + importin beta, 45 min; AID 540263, 2011; Importin subunit beta-1 (Homo sapiens), Q14974; 340,000 compounds, 0.031% hits; Potency, µM (series often up to 92.2 µM), for inactives: top-dose inhibition of complex formation; active = rising FRET ratio curve, often small or poorly fitted; inconclusive = mostly compound fluorescence or quenching in the first reads; inactive = flat curves in all reads;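 also: potency is read from the fitted curve at half-maximal effect; 0% = DMSO wells and 100% = buffer wells lacking importin beta; nearly all actives have a fitted effect of over 15% in size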
#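 Inhibition scored from the CFP 486 nm/YFP 530 nm FRET ratio 45 min after adding 0.125 microM importin beta to 50 nM Rango biosensor preincubated 5 min with compound (room temperature, PBS with DTT, Tween-20, BSA). No-importin wells as positive control.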
# GLA inh pH 4.5 = qHTS Assay for Inhibitors of Human alpha-Galactosidase at pH 4.5; purified enzyme, 4-MU-alpha-Gal fluorescence, pH 4.5; activity change, negative = inhibition, % at 105 µM; 230,000 tested, under 10 active; inconclusive = small, poorly fitted or top-dose-only inhibition, or a rising curve; inactive = flat fitted curve, though single readings scatter; no compound was filed as active;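 also: 0% = full activity with enzyme and -100% = basal without enzyme; dose as in the result columns while the protocol names 77 µM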
# Target sequence (P06280 whole entry, looked up): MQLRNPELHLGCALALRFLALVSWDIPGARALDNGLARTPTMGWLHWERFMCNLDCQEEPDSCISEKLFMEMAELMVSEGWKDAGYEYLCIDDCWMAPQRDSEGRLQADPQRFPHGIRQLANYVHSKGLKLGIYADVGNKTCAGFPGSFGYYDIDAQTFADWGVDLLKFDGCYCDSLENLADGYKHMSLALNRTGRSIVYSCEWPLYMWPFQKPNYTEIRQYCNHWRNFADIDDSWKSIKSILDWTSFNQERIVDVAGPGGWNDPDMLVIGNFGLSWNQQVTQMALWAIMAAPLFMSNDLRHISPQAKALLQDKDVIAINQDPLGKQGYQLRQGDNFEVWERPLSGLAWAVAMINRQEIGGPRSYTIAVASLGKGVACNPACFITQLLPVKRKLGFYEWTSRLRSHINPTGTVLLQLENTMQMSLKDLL
# Starred values were filed as active, the others as inactive; ? = inconclusive; nt = no result given; & = joins results of further samples; [ ] = another dose, or the depositor's remark.
SMILES,Rango dissoc inh,miR-21 FLuc,Rango complex inh,GLA inh pH 4.5
Cc1ccc2nc(-c3cccc(S(=O)(=O)N4CC(C)OC(C)C4)c3)cn2c1 (stereo unspecified),21%,4%,-0.3%,nt
CC1CC(C)CN(C(=O)c2cc3c(=O)n4ccccc4nc3s2)C1 (stereo unspecified),-4%,-18%,?,nt
CCc1ccccc1NC(=O)CCNS(=O)(=O)c1cc(Br)cnc1N,12%,5%,0.1%,nt
CCc1ccc(OCC(=O)Nc2ccc(S(=O)(=O)Nc3ccccn3)cc2)cc1,-15%,0%,-5.1%,nt
COc1ccc(S(=O)(=O)CCC(=O)Nc2cc(C)ccc2OC)cc1,-1%,-2%,-1.6%,6
CCN1/C(=C(\O)c2ccccc2)C(=O)c2ccccc2S1(=O)=O,-7%,30%,-0.3%,-9
S=C(NCc1ccco1)N/N=C/c1ccccc1Cl,-14%,-6%,2.6%,-1
O=C(CCNS(=O)(=O)c1ccc(F)c(F)c1)NCCN1CCOCC1,-3%,nt,4.9%,nt
Cn1cc(/C=N/NC(=O)COc2ccccc2[N+](=O)[O-])c2ccccc21,10%,-46%,-1.2%,-14
CC(C)c1ccc(S(=O)(=O)c2cc3cc(Br)ccc3oc2=O)cc1,-28%,-4%,0.1%,5
COC(=O)c1cccc(NC(=O)NC23CC4CC(CC(C4)C2)C3)c1,-5%,0%,0.4%,-19
CSc1ccccc1C(=O)OCC(=O)N1CCCCCC1,9%,nt,-0.2%,nt
C=CCN1C(=O)CN=C1Nc1ccc(OC)cc1OC,1%,0%,-4.1%,-1
CCCNC(=O)c1c(O)c2c([nH]c1=O)CCCC2,6%,-5%,2.7%,3
COc1ccc(CCN(C)CC(=O)Nc2cc(C)nc3ccccc23)cc1OC,-8%,3%,2.4%,7
C/C(=N/NC(=O)CN1CCN(Cc2ccccc2Cl)CC1)c1cccnc1,-28%,0%,-0.7%,-2
C/C(=N\NC(=O)c1ccc(CSc2nncn2C)cc1)c1ccc(Cl)cc1,1%,-20%,-1.1%,3
Cc1ccc(/C=N/c2sc3c(c2C(N)=O)CCCC3)o1,1%,-47%,-2.1%,3
CCOc1ccc(C(=S)NC2CCCCC2)cc1OC,-11%,-22%,-4.5%,-7
COc1ccc(COC(=O)CN2C(=O)NC3(CC(C)CC(C)(C)C3)C2=O)cc1F (stereo unspecified),1%,nt,0.3%,nt
O=C(NN1CCOCC1)c1cc(-c2cccc(Cl)c2)nc2ccccc12,-14%,-6%,0.7%,-3
COc1ccc(Br)cc1S(=O)(=O)NCCCN1CCOCC1,0%,-5%,0.5%,6
CC1(C)CC(=O)N(CC(=O)NC2CCCC2)c2ccccc2S1(=O)=O,-20%,-8%,-0.9%,2
Cc1ccc(CN=c2c([N+](=O)[O-])nn(-c3ccc4c(c3)OCCO4)n2O)cc1,-4%,-68%,1.8%,0
O=C(O)c1cc(-c2ccc(Cl)cc2)n(-c2ccc(F)cc2)n1,-10%,-16%,0.9%,nt
COc1ccc(CN(C(=O)Cc2cccs2)C(C(=O)NC2CCCC2)c2ccncc2)cc1 (stereo unspecified),?,-5%,?,2
c1ccc(-c2nc(N3CCOCC3)c3ccccc3n2)nc1,-4%,24%,1.9%,-9
CCOP(=O)(OCC)C(Nc1ccccn1)c1ccccc1 (stereo unspecified),-18%,-4%,-0.6%,4
CN(C)/N=C/c1cc(Cl)cc([N+](=O)[O-])c1O,-20%,-2%,1.5%,-2
COc1ccccc1NS(=O)(=O)c1cc(NC(=O)C2CCCO2)ccc1C (stereo unspecified),0%,nt,-2.5%,nt
Cc1cc2nc(CO)[nH]c2cc1C,-20%,-9%,-0.1%,3
COc1ccc(-n2c(=O)c3ccccc3n(CC(=O)NCc3ccco3)c2=O)cc1,-6%,5%,-0.2%,1[21.1 µM]
Cc1cc(C)n2nc(C(=O)OCC(=O)N3C(C)CCCC3C)nc2n1 (stereo unspecified),-1%,nt,-0.6%,nt
O=C(NCc1ccc(Cl)cc1)c1ccc2ccccc2n1,-6%,-34%,1.5%,nt
O=C(CN(Cc1ccccc1)S(=O)(=O)c1ccc(Br)cc1)N/N=C/c1ccccc1C(=O)O,19%,-9%,-0.5%,-5
COc1ccc(OC)c(C(=O)NC(CC(N)=O)c2ccc(N3CCCCCC3)c([N+](=O)[O-])c2)c1 (stereo unspecified),-17%,-4%,4.7%,nt
NC(=O)c1ncn([C@@H]2O[C@H](CNCc3ccc(OCC(=O)Nc4ccccn4)cc3)[C@@H](O)[C@H]2O)n1,-6%,nt,-1.1%,nt
Cc1nn2c(c1-c1ccccc1)NC1=C(C(=O)CCC1)C2c1ccccc1 (stereo unspecified),-4%,0%,?,6
O=C(N/N=C/c1cccc(Cl)c1)C(c1ccncc1)N1CCOCC1 (stereo unspecified),-6%,3%,-0.3%,3
O=C1NC(=Nc2cccc(O)c2)S/C1=C\c1cccc([N+](=O)[O-])c1,-22%,-45%,0.0%,nt
CC(=O)Nc1ccc(S(=O)(=O)N(C)CC(=O)Nc2cccc(S(=O)(=O)N3CCCC3)c2)cc1,-5%,nt,-0.6%,nt
CCOc1ccc(CNC(=O)c2ccc(Sc3ccc(C)cc3)c(NC(C)=O)c2)cc1OC,-6%,17%,-1.4%,6
COc1ccc(Nc2cc(Nc3cc(OC)c(OC)c(OC)c3)ncn2)cc1,-13%,-18%,-1.8%,nt
CCCn1cc(SCC(=O)NCc2ccc3c(c2)OCO3)c2ccccc21,1%,-4%,-3.7%,-2
COC(=O)CCCC1=CC2=C(c3ccccc3)C(=O)C(C)(OC(=O)C3CCCC3)C(=O)C2=CN1c1ccc(OC)cc1 (stereo unspecified),?,1%,?,5&-3
Cc1nc2c(=O)oc3ccccc3c2n1-c1ccccc1,-1%,-26%,0.0%,3
CCCCC1(C)Nc2ccccc2-c2nc3ccccc3n21 (stereo unspecified),-18%,-12%,-0.9%,?
Cc1cc(C(=O)CSc2nc(N)cc(=O)[nH]2)c(C)n1-c1ccc(OC(F)F)cc1,-8%,20%,?,2
COCc1nnc(NC(=O)c2cc(OC)c(OC)cc2[N+](=O)[O-])s1,11%,-4%,0.9%,5
CCOC(=O)c1ccc(NC(=S)NCc2ccc(F)cc2)cc1,-2%,nt,0.1%,nt
NC(=O)Nc1ccc(C(=O)OCC(=O)Nc2ccc([N+](=O)[O-])cc2C(F)(F)F)cc1,14%,-6%,2.8%,-6
CCCc1nnc(SCC(=O)O)n1CC,24%,6%,0.6%,1
Cc1cccc(NC(=O)C(=O)NCC2CCCO2)c1 (stereo unspecified),10%,-46%,-2.8%,3
c1cc(-n2nnc3cnccc32)ccn1,10%,-2%,-2.3%,1
CCn1c(CNC(=O)c2ccc(F)cc2)cc2ccccc21,5%,-25%,-0.5%,nt
O=C(O)c1cccc(S(=O)(=O)N2CCOCC2)c1,-7%,-6%,-2.3%,-7
O=C(CSc1ccc(Cl)cc1)Nc1cccc(NC(=O)c2ccco2)c1,14%,-14%,-1.1%,-3
Cc1ccc(CNn2cn[nH]c2=S)cc1,-11%,nt,2.1%,nt
Cc1ccc(C(=O)COc2ccc3c(C)cc(=O)oc3c2)cc1,38%,-31%,3.8%,nt
O=C(Nc1nc2ccsc2c(=O)s1)C1CCC1,?,-51%,0.6%,-2

# More structures:
SMILES,Rango dissoc inh,miR-21 FLuc,Rango complex inh,GLA inh pH 4.5
O=C(OCc1ccc(Br)cc1)c1cccc(-c2nnc(-c3ccccc3)o2)c1,16%,-21%,-3.9%,-8
Cc1cc(C)nc(SCc2cn3c(C)cc(C)nc3n2)n1,-10%,1%,-1.1%,-10
Cc1ccc(S(=O)(=O)NCCNC(=O)N2CCOCC2)cc1,-16%,1%,0.2%,8
O=C(Nc1ccc(F)cc1)N1CCc2ccccc2C1,3%,-52%,0.0%,-9
CCN(CCCNC(=O)c1[nH]c(C)c(C(C)=O)c1C)c1cccc(C)c1,-4%,2%,-1.2%,-9
Fc1ccccc1NC(=S)Nc1ccc(Br)cc1,3%,9%,0.3%,2
CC(=O)Nc1ccc(NC(=O)c2sc3nc4n(c(=O)c3c2C)CCCCC4)cc1,21%,20%,-0.9%,2
CC(C)(C)OC(=O)NCCCC[C@H](NC(=O)c1[nH]cnc1C(=O)Nc1ccccc1)C(=O)OC(C)(C)C,10%,11%,-0.6%,-13
CSCC(=O)N1CCCC(CNC(=O)c2ccccc2Cl)C1 (stereo unspecified),-4%,4%,0.9%,-1
O=C(Nc1nc2c(Cl)c(Cl)ccc2s1)C1CC1,19%,-2%,2.8%,nt
Cc1ccc(C(=O)Nc2cccc([N+](=O)[O-])c2)cc1S(=O)(=O)Nc1ccc(NC(=O)c2ccccc2)cc1,-5%,9%,5.6%,-9
Cn1cc(C(=O)c2cccc(Cl)c2)cc1/C=N\O,-11%,-35%,2.1%,-1
Cc1ccc(NC(=O)Cn2cc(C(=O)C3CC3)c3ccccc32)cc1,9%,1%&-3%,-0.6%,nt
Cc1cccc(C(=O)Nc2ccc(S(=O)(=O)N3CCOCC3)cc2C)c1,7%,-3%,-4.0%,nt
Cc1cc(N2C(=O)C(=O)/C(=C(/O)c3ccccc3)C2c2cccs2)no1 (stereo unspecified),1%,-5%,3.0%,-5
Cc1cccc(OCCCN2CCOCC2)c1,0%,-12%,-1.1%,nt
Cc1ccc2c(c1)-c1c(cnn1CC(=O)N1CCCN(Cc3ccccc3F)C1)CO2,14%,0%,1.8%,4
CC(C)(C)c1ccc(OCC(=O)O/N=C(\N)c2ccncc2)cc1,-3%,nt,-3.7%,nt
O=C(CN1CCN(C(c2ccccc2)c2ccccc2)CC1)NCc1ccccc1,5%,4%,2.2%,0
O=S(=O)(NCC1CCCN(Cc2ccccc2)C1)c1cccc2cccnc12 (stereo unspecified),-8%,-2%,-1.4%,nt

# Full records, quoted from the list:
# CSCC(=O)N1CCCC(CNC(=O)c2ccccc2Cl)C1 (stereo unspecified) as listed: Rango dissoc inh = -4%; miR-21 FLuc = 4%; Rango complex inh = 0.9%; GLA inh pH 4.5 = -1
# Cn1cc(C(=O)c2cccc(Cl)c2)cc1/C=N\O as listed: Rango dissoc inh = -11%; miR-21 FLuc = -35%; Rango complex inh = 2.1%; GLA inh pH 4.5 = -1

# Arranged by count of non-hydrogen atoms (smallest number first): some entries from above.
SMILES,Rango dissoc inh,miR-21 FLuc,Rango complex inh,GLA inh pH 4.5
Fc1ccccc1NC(=S)Nc1ccc(Br)cc1,3%,9%,0.3%,2
CSCC(=O)N1CCCC(CNC(=O)c2ccccc2Cl)C1 (stereo unspecified),-4%,4%,0.9%,-1
CC(C)(C)c1ccc(OCC(=O)O/N=C(\N)c2ccncc2)cc1,-3%,nt,-3.7%,nt
Cc1cc(N2C(=O)C(=O)/C(=C(/O)c3ccccc3)C2c2cccs2)no1 (stereo unspecified),1%,-5%,3.0%,-5
O=C(CN1CCN(C(c2ccccc2)c2ccccc2)CC1)NCc1ccccc1,5%,4%,2.2%,0
CC(C)(C)OC(=O)NCCCC[C@H](NC(=O)c1[nH]cnc1C(=O)Nc1ccccc1)C(=O)OC(C)(C)C,10%,11%,-0.6%,-13

# Next compounds follow:
SMILES,Rango dissoc inh,miR-21 FLuc,Rango complex inh,GLA inh pH 4.5
O=C(CSc1nnc(-c2ccco2)o1)N1CCOCC1,-21%,2%,?,-4
O=C1CCCc2c1[nH]c1ccc(Cl)cc21,?,-15%,?,-2
Cn1c(N)c(C(=O)COC(=O)/C=C/c2ccc(Cl)cc2Cl)c(=O)n(C)c1=O,0%,nt,4.5%,nt
O=C(N/N=C/c1ccccc1C(=O)O)c1cccc(S(=O)(=O)N2CCCCC2)c1,?,nt,-3.7%,nt
Cc1ccc(C)c(OCCC(=O)NCCc2ccc(F)cc2)c1,6%,-6%,-1.0%,nt

# These rows are one share of the data. The share of hits here may be higher or lower than overall.
